# Compound activity: PubChem, several laboratories
# AF4-AF9 inh: inhibitors of human MLL-AF4/AF9 interaction; P42568; AlphaScreen, biotin-AF4 peptide binding to FLAG-AF9; inhibition, % at 10 µM; 0.47% of 350,000 active;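 active = every replicate reaching a set inhibition limit, whatever the replicate mean, cut at about 25% in these data; inconclusive = mean inhibition reaches that limit but some replicates miss it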;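 note: 0% = plate neutral control median and 100% = total signal loss; the record names both 10 and 1 µM as test concentration; the first replicate is given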
# Target sequence (P42568 whole entry, looked up): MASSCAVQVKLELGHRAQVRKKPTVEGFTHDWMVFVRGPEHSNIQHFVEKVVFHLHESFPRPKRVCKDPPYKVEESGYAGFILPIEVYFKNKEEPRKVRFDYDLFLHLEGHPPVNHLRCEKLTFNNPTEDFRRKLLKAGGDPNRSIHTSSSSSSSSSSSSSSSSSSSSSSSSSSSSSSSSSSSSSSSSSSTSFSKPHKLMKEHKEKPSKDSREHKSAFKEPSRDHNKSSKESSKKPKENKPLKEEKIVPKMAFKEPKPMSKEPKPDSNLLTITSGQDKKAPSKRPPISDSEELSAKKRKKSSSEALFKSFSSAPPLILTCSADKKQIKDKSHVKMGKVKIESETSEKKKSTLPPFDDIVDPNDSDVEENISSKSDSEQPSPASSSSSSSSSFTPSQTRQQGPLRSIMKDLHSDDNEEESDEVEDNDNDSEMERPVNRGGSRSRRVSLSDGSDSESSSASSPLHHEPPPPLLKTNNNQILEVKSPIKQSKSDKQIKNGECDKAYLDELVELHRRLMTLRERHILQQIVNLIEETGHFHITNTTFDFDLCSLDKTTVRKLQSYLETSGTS
# E coli growth: inhibitors of Escherichia coli growth; AID 1053175; OD600, 23 h; stronger effect = lower value; OD600 absorbance (test concentration not listed); 0.21% of 330,000 active;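 active = OD600 absorbance below the run mean of sample wells minus 3.6 SD, in any replicate, cut at about 0.56 in these data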;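 note: stock transfer was 300 nL into about 60 µL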
# UCH37 inh: blocks the human deubiquitinase UCH37. 0.33% of 330,000 active. Q9Y5K5. purified proteasome/UCH37, Ub-AMC cleavage fluorescence. inhibition, % (no concentration beside the values). AID 588478;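 active = mean of two replicates above 20%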;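 note: 0% = compound-free wells with enzyme and 100% = wells lacking proteasome; stock transfer was 100 nL into about 20 µL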
# Target sequence (Q9Y5K5 whole entry, looked up): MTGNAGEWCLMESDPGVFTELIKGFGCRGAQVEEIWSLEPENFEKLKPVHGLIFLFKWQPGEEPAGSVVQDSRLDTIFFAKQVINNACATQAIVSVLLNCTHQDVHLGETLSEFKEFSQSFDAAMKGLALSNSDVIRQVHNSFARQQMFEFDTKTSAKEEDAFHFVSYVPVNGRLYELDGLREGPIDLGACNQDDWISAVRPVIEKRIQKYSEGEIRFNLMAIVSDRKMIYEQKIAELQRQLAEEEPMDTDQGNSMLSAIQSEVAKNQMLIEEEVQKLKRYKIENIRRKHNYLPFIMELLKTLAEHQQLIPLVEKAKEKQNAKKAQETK
#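 Assay system: Proteasome-bound UCH37. Buffer or medium: pH 7.4 Tris-HCl (50 mM) with ovalbumin, ATP-MgCl2, DTT. Incubation: 30 min preincubation with enzyme, 25 min cleavage at room temperature. Measured by: fluorescence, ex 355 nm, em 460 nm. Read-out basis: percent inhibition. Control set: wells without proteasome as full block, compound-free enzyme plus substrate as uninhibited.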
# rRNA inh HTS: inhibitors of bacterial rRNA selective over humanized ribosomes; E. coli WT GFP vs humanized-ribosome RFP mutants, fluorescence, 24 h; stronger effect = lower value; DMSO median 0, no signal -100; GFP signal change (wild-type ribosome), % (test concentration not listed); 1.6% of 350,000 active; AID 720706;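 active = significant combined selectivity score with lowered wild-type GFP, culture density cut under 30%, mutant RFP and density less affected; inactive = any of these conditions unmet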; note: one replicate is shown; some compounds called inactive have numbers as strong as hits
# A1 inh: inhibitors of the anti-apoptotic protein A1, read as caspase activation; MEF A1-2A-BIM cells, Caspase-Glo 3/7 luminescence, 3 h; percent of clofoctol response, vehicle zero; caspase activation, % (test concentration not listed); 0.066% of 330,000 active; AID 2462;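 active = over half of replicate activation scores above 10%, or exactly half above 10 with the replicate mean above 10; inconclusive = replicate mean below 10 yet half the replicates above 10; inactive = over half of replicates below 10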;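 note: wells of about 30 µL received 50 nL stock; many hits fall short of the cut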
# Beta apoptosis: blocks beta cell apoptosis. INS-1E cytokine-induced death, ATP luminescence, 48 h; percent of positive-control rescue, neutral wells zero. protection from apoptosis, % (concentration not given with the values). 0.8% of 300,000 active. AID 435005;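 active = all replicates at 75% or more, or half of them and the mean; inconclusive = half reach 75% but not the mean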;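 note: 0% = cytokine-treated negative control wells and 100% = positive control rescue; higher means more ATP so stronger rescue from cytokine killing; wells of about 40 µL received 100 nL stock; the first replicate is given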
# T cruzi inh: T. cruzi replication inhibition. 1.4% of 300,000 active. AID 1885. T. cruzi beta-gal in NIH3T3, luminescence, 90 h. inhibition, % (concentration not given with the values);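 active = mean inhibition across valid replicates above about 55%, limit read from the data; inconclusive = mean below that limit but half or more replicates reach it; inactive = mean below it, under half of replicates reach it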;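 note: signal also drops with host cell toxicity which is not excluded here; 0% = plate median of DMSO wells and 100% = zero luminescence signal; higher percent means less beta-gal luminescence so fewer parasites; stock transfer was 50 nL into about 50 µL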
# FGF22 binding: FGF22 (human) thermal shift binding; recombinant FGF22 thermal shift, SYPRO orange fluorescence; percent of sucrose octasulfate shift, DMSO zero; calls only at 9.99 µM; 1.5% of 340,000 active;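 active = melting point raised past a set limit in the mean and every replicate; inconclusive = no clear call; three in four hits are not shown here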
# Target sequence (Q9HCT0 whole entry, looked up): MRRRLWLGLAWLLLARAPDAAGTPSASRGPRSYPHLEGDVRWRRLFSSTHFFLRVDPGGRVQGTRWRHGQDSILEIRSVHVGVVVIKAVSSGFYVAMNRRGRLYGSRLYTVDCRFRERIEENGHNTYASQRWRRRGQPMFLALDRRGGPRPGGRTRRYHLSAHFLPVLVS
# rRNA inh HTS OD600: second read-out of rRNA inh HTS, no call of its own (marks repeat the call); OD600 change, %; measured here: OD600 growth;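 optical density of the mix in the first replicate; 0 = DMSO median and -100 = no signal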
# rRNA inh HTS RFP: second read-out of rRNA inh HTS, no call of its own (marks repeat the call); RFP signal change, %; measured here: RFP humanized mutant strains;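 first replicate; 0 = DMSO median and -100 = no signal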
# The depositor's hits bear a star; i = inactive; ? = inconclusive; . = no result given. Some of the compounds tested, so the mix of outcomes need not match the whole.
SMILES,AF4-AF9 inh,E coli growth,UCH37 inh,rRNA inh HTS,rRNA inh HTS OD600,rRNA inh HTS RFP,A1 inh,Beta apoptosis,T cruzi inh,FGF22 binding
CCn1ncc(Cl)c1C(=O)Nc1cc([N+](=O)[O-])ccc1OC,-0.4,0.719,1.2,7.7,5.1,-0.1,0.0,-0.5,-7.8,i
O=S(=O)(c1ccccc1)N1CCC(=NO)CC1,2.4,0.677,0.9,12.6,3.3,2.5,-0.3,-3.5,-3.0,.
Cc1nc2ncnn2c(C)c1CCC(=O)N1CCOCC1,.,0.698,0.1,.,.,.,-0.4,.,-28.6,.
C=CCC(NCCCO)c1cccc(OC)c1OC (stereo not given),.,0.754,1.2,.,.,.,1.3,-1.8,7.4,.
C/C(Cl)=C/Cc1c(C)[nH]c2c(ccc3ccccc32)c1=O,-1.0,0.724,-6.5,6.0,10.0,-1.8,0.1,23.7,23.9,i
COc1ccc(CNS(=O)(=O)c2ccc(F)c(C(=O)Nc3ccccc3OC)c2)cc1,0.2,0.732,-39.5,12.9,21.1,-1.9,-0.3,-9.9,2.7,i
O=C(O)CCC(=O)c1ccc2c(c1)CCCC2,-3.3,0.681,7.4,2.5,-1.0,-2.2,-0.6,-2.3,-15.0,i
O=C(Nc1ccc2nn(-c3ccccc3)nc2c1)c1ccco1,.,0.749,-49.3,.,.,.,-5.7,9.7,9.2,.
NC(=S)N/N=C1/CCSc2ccc3ccccc3c21,21.8,.,.,-34.0,-34.6,13.6,-1.5,2.7,37.6,i
N#CCC(=O)Nc1ccc(C(=O)OCC(=O)Nc2ccc3ccccc3c2)cc1,0.0,0.717,1.4,-17.6*,-12.6*,5.0*,0.0,-3.1,.,i
C/C(CC(=O)Nc1ccc2c(c1)OCCO2)=N\NC(=O)COc1ccc(Cl)c(C)c1,-0.9,.,.,-18.0,-13.1,-1.8,1.5,2.1,-20.3,i
O=C(C1CCCO1)N1CCN(C(=S)Nc2ccccc2Cl)CC1 (stereo not given),0.1,0.711,0.7,14.5,12.1,-0.2,?,2.8,-0.6,i
COC(=O)C1=C(C)Nc2ncnn2C1c1ccc(OC(=O)c2ccccc2)cc1 (stereo not given),5.3,0.751,-1.7,23.0,5.9,1.1,0.0,4.0,1.4,i
Nc1nc2cc(S(=O)(=O)N3CCOCC3)ccc2o1,0.2,0.667,6.5,3.7,5.5,-1.2,-0.6,-2.5,.,i
Cc1cc(NC(=O)c2ccccc2Cl)c(C(C)C)cc1O,.,0.698,4.5,.,.,.,0.2,8.1,-1.4,.
O=S(=O)(Nc1n[nH]c(C(F)(F)F)n1)c1ccccc1,-0.3,0.719,3.1,7.0,-1.4,0.8,0.2,-1.4,-13.7,i
O=C(N/N=C1/CCSC1)c1cc(Br)ccc1O,-1.5,.,.,-41.2,-47.8,-7.5,-4.2,3.7,-8.9,i
Fc1ccccc1C1c2[nH]c3ccccc3c2CCN1Cc1cccn1-c1ncccn1 (stereo not given),26.7*,0.689,-2.6,-1.0,-9.1,-6.1,0.4,1.1,77.4*,i
CCN(CC)S(=O)(=O)c1ccc(N/N=C(\C)c2cccnc2)nc1,0.1,.,.,-0.4,5.0,0.7,-0.1,2.4,10.2,i
O=C(C1CCCN(S(=O)(=O)c2cnc[nH]2)C1)N1CCN(Cc2ccccc2)CC1 (stereo not given),.,0.724,8.4,.,.,.,0.3,-6.4,-13.7,.
COc1ccc(/C=C(\NC(=O)c2ccco2)C(=O)N2CCOCC2)cc1,0.1,0.643,5.5,2.8,13.6,-1.1,0.5,-0.6,5.6,i
Cc1cc(Br)ccc1SCC(=O)OCC(O)=C(C#N)c1nc2ccccc2[nH]1,-0.2,0.665,3.4,6.3,3.9,21.2,.,.,.,i
Nc1nc2ccc(C(=O)NC3CCCCC3)cc2s1,.,0.696,-4.4,.,.,.,-0.8,0.7,-13.1,.
N#CC(CCc1ccccn1)c1ccccc1 (stereo not given),5.1,0.66,-0.2,1.8,3.0,1.7,.,.,.,i
COc1ccc(S(=O)(=O)N2CCCOC2CNC(=O)C(=O)NCc2ccccc2F)cc1C (stereo not given),0.2,0.7,4.4,9.2,10.9,-0.4,0.8,-3.3,-7.7,i
CC1(C)Oc2cc(N)c([N+](=O)[O-])cc2O1,.,0.672,11.5,.,.,.,-0.5,-3.0,3.3,.
Cc1cc(C)c2nc(-c3ccccn3)cc(C(=O)n3cccn3)c2c1,-0.9,0.71,-87.7,-8.5,-12.3,-0.6,-0.5,.,-23.2,i
O=C(CN1CCN(CC(=O)Nc2cccc(F)c2)CC1)NCC1(N2CCOCC2)CCCCC1,-1.1,0.665,1.9,12.4,1.7,6.6,.,.,.,i
C[C@]12c3[nH]c4ccccc4c3CCN1C(=O)C(CC(=O)NCC13CC4CC(CC(C4)C1)C3)C[C@@H]2C(=O)N1CCOCC1 (stereo not given in full),5.3,0.678,1.0,-19.0,-46.8,-4.1,0.0,-14.0,.,i
COc1ccc(CNC(=O)COC(=O)c2c(C)nn(-c3ccccc3)c2C)cc1OC,1.6,0.664,2.4,-5.9,-12.1,0.8,.,.,.,i
C=CCNC(=S)NNC(=O)c1ccc(C)c(Cl)c1,0.8,0.674,3.2,2.3,-2.2,-1.8,0.4,1.6,-0.9,i
O=C(c1ccc(=O)[nH]c1)N(Cc1cccs1)C1(C(=O)NC2CCCC2)CCCCC1,.,0.708,-2.7,.,.,.,0.5,-1.3,-7.9,.
CC1Cc2ccccc2N1C(=O)CSc1nc2ccccc2o1 (stereo not given),.,0.633,3.2,.,.,.,0.1,104.4*,23.3,.
Cc1nc2sc3c(c2c(=O)o1)CC(C)(C)OC3,.,0.716,-1.1,.,.,.,2.3,.,-4.2,.
CCOC(=O)N1CCN(C(=O)c2cccn3c(=O)c4sccc4nc23)CC1,.,0.715,i,.,.,.,0.9,0.5,.,.
O=C(NC(=S)Nn1cnnc1)c1ccccc1,-2.1,0.678,-1.5,4.1,7.7,12.6,-1.0,.,-0.2,i
O=C(Nc1nnc(-c2cccnc2)o1)c1cccc(Cl)c1,3.0,0.617,4.0,-49.9,-74.7,-26.6,-1.3,-0.2,-26.1,i
COc1cccc(C(=O)N(Cc2ccccc2)Cc2cc3cc4c(cc3[nH]c2=O)OCCO4)c1,.,0.683,-57.4,.,.,.,0.1,10.9,10.9,.
Cc1ccc(CNC(=O)c2nnn(CC(=O)Nc3cccc(C)c3C)c2N)cc1,1.0,0.643,2.5,9.0,11.1,3.8,-0.2,-12.3,-15.9,i
c1ccc(CCCCN2C(Nc3ccccc3)=NC[C@@H]2Cc2ccccc2)cc1,12.2,0.696,-0.7,-17.0,-36.1,-5.0,0.7,5.1,.,i
CCN(CC)CC(C)(C)COC(=O)c1oc2ccccc2c1C,1.4,0.653,5.1,-2.3,3.3,-10.6,-0.2,-11.8,-0.4,i
COc1ccc(NC(=O)c2cc(S(=O)(=O)N3CCCC3)cn2C)cc1Cl,-0.3,0.704,6.3,3.2,-1.2,-3.7,.,-5.5,-11.2,i
CCCOc1ccc(Cl)cc1/C=C1/C(=O)ON=C1C,0.3,0.646,4.5,-1.5,6.9,1.1,0.0,-6.9,1.1,i
Cc1ccc(S(=O)(=O)CCC(=O)Nc2nc3c(s2)CCCC3)cc1,.,0.715,1.2,.,.,.,0.8,-7.8,8.3,.
CC(=NO)C1CCC2C3CCC4CC(=NO)CCC4(C)C3C(C)(O)CC12C (stereo not given),1.2,0.708,3.6,-24.1,-48.3,-7.8,.,.,.,i
CC(=O)NC(Cc1cc(C)ccc1C)C(=O)N1CCN(C(=O)c2ccccc2Br)CC1 (stereo not given),.,0.709,4.1,.,.,.,0.6,-5.0,5.5,.
Cc1onc(-c2ccc(Cl)cc2)c1-c1ccnc(SCC(=O)Nc2ccc(C(C)C)cc2)n1,.,0.729,3.5,10.4,-2.3,-0.5,1.4,.,53.4,i
COC(=O)c1ccc(C2=NOC(C)(c3sc(-c4ccccc4)nc3C)C2)cc1 (stereo not given),-0.8,0.675,-1.5,-4.4,-3.9,-4.6,-0.1,-2.8,1.9,i
CC(C)CN1CCCC(N2CCN(c3cccc(Cl)c3)CC2)C1 (stereo not given),0.5,0.646,-0.3,-3.6,2.1,-0.5,-1.3,.,65.1*,i
CC(C)C(=O)N(Nc1nc2ccccc2s1)C(=O)C(C)C,-0.6,0.669,0.2,-9.8,-10.5,3.1,-0.5,.,-11.3,i
COc1cc(Cl)c(C)cc1NC(=O)CN1CCN(C(=O)C2CC2)CC1,.,0.693,1.1,.,.,.,0.6,1.0,.,.
Cc1c(Nc2ncnc3c2cnn3-c2ccccc2)c(=O)n(-c2ccccc2)n1C,.,0.651,5.0,.,.,.,0.3,-6.2,20.8,.
CCOc1nc(-c2ccc(OC)cc2)ccc1-c1noc(C)n1,.,0.668,-173.9,.,.,.,0.1,-8.8,17.6,.
Cc1ccc(S(=O)(=O)N2[C@@H](c3ccccc3)C(C(=O)O)=CC[C@H]2c2ccc(Cl)cc2)cc1,-13.0,.,.,-35.0,-30.4,-11.4,-0.8,2.1,.,i
COc1ccc(CCNC(=O)COC(=O)c2ccc(OC)cc2OC)cc1,0.0,0.698,-1.0,-7.7,-6.8,-0.1,.,.,.,i
O=C(CN1CCN(c2ccccc2)CC1)Nc1c(C(=O)C2CC2)oc2ccccc12,.,0.711,3.1,.,.,.,0.4,-4.5,-6.0,.
Cc1cc(C)c(S(=O)(=O)N2CCOC2CNC(=O)C(=O)NCCCn2ccnc2)c(C)c1 (stereo not given),-1.6,0.639,-0.3,5.2,0.9,4.2,-1.1,2.9,3.8,i
CCCn1c2ccccc2c2nnc(SC(CC)C(=O)Nc3cc(C)on3)nc21 (stereo not given),.,0.695,0.8,.,.,.,0.1,5.7,16.9,.
COc1ccc(NC(=O)CN2CCN(c3ccccc3C)CC2)cc1,-2.0,0.695,2.7,-31.0*,-22.6*,-4.8*,-0.1,3.0,-9.8,i
Cc1ccc(C)c(S(=O)(=O)N2CC(=O)Nc3ccccc32)c1,.,0.71,3.0,.,.,.,0.0,-0.3,-11.4,.

# Continued.
SMILES,AF4-AF9 inh,E coli growth,UCH37 inh,rRNA inh HTS,rRNA inh HTS OD600,rRNA inh HTS RFP,A1 inh,Beta apoptosis,T cruzi inh,FGF22 binding
Cc1nn(Cc2ccc(Cl)cc2)c(C)c1NC(=O)CCCn1nc(C)c([N+](=O)[O-])c1C,.,0.654,2.0,.,.,.,1.1,-0.1,1.6,.
O=C(COc1ccc(S(=O)(=O)NC2CCCCC2)cc1)NCC1CCCO1 (stereo not given),.,0.591,1.4,10.3,9.4,1.2,0.4,8.8,0.8,.
COc1ccccc1CNC(=O)c1cccnc1,-3.3,0.637,-0.8,0.1,0.0,-3.6,1.7,-3.3,-0.1,i
Cc1ccc(C)c(S(=O)(=O)Nc2ccc3sc(C)nc3c2)c1,.,0.679,2.3,.,.,.,-2.0,5.8,3.2,.
CC(C)(C)c1ccc(S(=O)(=O)N2CCN(CC(=O)N3CC(=O)Nc4ccccc43)CC2)cc1,-0.5,0.634,0.7,.,.,.,1.3,2.8,.,i
